High-throughput results: PubChem BioAssay, National Center for Advancing Translational Sciences (NCATS)
Lassa entry inh – inhibitors of Lassa virus binding or cell entry; Lassa virus pseudotype entry inhibition, cell reporter; control for the full effect not named in the record; Potency, µM (highest dose often 37.9 µM), without a hit: at the top dose activity change, negative = inhibition, actives largely listed as inhibitors; 300,000 compounds, 1.2% hits; active means well fitted inhibition curve with a large enough effect; inconclusive means small, poorly fitted or top-dose-only effect, or effect the other way; inactive means flat fitted curve, though single readings scatter; tested in HEK293 cells; further: on the % scale 0 is the no-effect control and ±100 the full control effect; nearly all actives have a fitted effect of over 50% in size; luciferase read-out
SARS PLpro yeast – inhibitors of SARS-CoV papain-like protease in yeast; Potency, µM (titrated, usually from 32.9 µM), without a hit: top-dose activity, positive = growth rescue; 330,000 compounds, 0.19% hits; S. cerevisiae expressing SARS-CoV PLpro, growth rescue; control for the full effect not named in the record; active means well fitted rising curve with a large enough effect; inconclusive means small, poorly fitted or top-dose-only effect; inactive means no such curve, though single readings can be large or run the other way; further: 0% is about no effect; nearly all actives have a fitted effect of over 55% in size; growth read by luminescence after 48 h
MARV entry inh – inhibitors of Marburg virus binding or cell entry | 300,000 compounds, 1.8% hits | AID 540276 | Marburg virus pseudotyped entry inhibition, cell reporter; control for the full effect not named in the record; about a third of the inactives were read at about 46 µM | Potency, µM (doses to about 37.8 µM), for the others: at the highest dose activity change, negative = inhibition, hits mostly inhibitors; active = well fitted inhibition curve with a large enough effect; inconclusive = small, poorly fitted or top-dose-only effect, or effect the other way; inactive = flat fitted curve, though single readings scatter; tested in HEK293 cells; about a fifth of its hits are not listed in these tables; further: on the % scale 0 is the no-effect control and ±100 the full control effect; luciferase read-out
RE007 growth inh – less growth of the S. pombe RE007 Vpr strain. AID 651644. 360,000 compounds, 0.21% hits. S. pombe RE007 Vpr strain, BacTiter-Glo ATP luminescence, 24 h; control for the full effect not named in the record. Potency, µM (titrated, usually from 92.2 µM), for inactives: top-dose activity change, negative = less growth; active = well fitted falling curve with a large enough effect; inconclusive = small, poorly fitted or top-dose-only effect; inactive = no such curve, though single readings can be large or run the other way;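 further: on the % scale 0 is the no-effect control and ±100 the full control effect; nearly all actives have a fitted effect of over 50% in size; the assay follows cell death caused by Vpr and the record does not say whether a fall means rescue or toxicity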
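Fission yeast RE007 carrying one integrated HIV-1 vpr copy, seeded at OD 0.01 in PMG+AL medium with 23 nL pinned compound. Grown 24 h at 30 degrees; viability read by BacTiter-Glo luminescence after 5 min.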
2A StopGo – lowers the luciferase signal of an FMDV 2A StopGo reporter | human cells with a luciferase reporter of 2A StopGo recoding; control for the full effect not named in the record | Potency, µM (doses to about 57.9 µM), inactives show at the top dose signal change, negative = less light | 410,000 compounds, 1.2% hits | AID 1159524; active = well fitted falling curve with a large enough effect; inconclusive = small, poorly fitted or top-dose-only effect; inactive = no such curve, though single readings can be large or run the other way; tested in HEK293T cells; further: on the % scale 0 is the no-effect control and ±100 the full control effect; nearly all actives have a fitted effect of over 45% in size; luciferase light after 4 h
Cruzain inh noDet – inhibitors of Trypanosoma cruzi cruzain without detergent; AID 1476; Potency, µM, for inactives: max response, negative = inhibition, hits mostly inhibitors; P25779; 200,000 compounds, 2.3% hits; purified cruzain, Z-FR-AMC fluorescence, no detergent;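 further: plate controls were enzyme without inhibitor for no effect and buffer without enzyme for full effect; nearly all actives have a fitted effect of over 40% in size; top concentration of the series not given in the record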
Target sequence (P25779 123-467 limits assumed): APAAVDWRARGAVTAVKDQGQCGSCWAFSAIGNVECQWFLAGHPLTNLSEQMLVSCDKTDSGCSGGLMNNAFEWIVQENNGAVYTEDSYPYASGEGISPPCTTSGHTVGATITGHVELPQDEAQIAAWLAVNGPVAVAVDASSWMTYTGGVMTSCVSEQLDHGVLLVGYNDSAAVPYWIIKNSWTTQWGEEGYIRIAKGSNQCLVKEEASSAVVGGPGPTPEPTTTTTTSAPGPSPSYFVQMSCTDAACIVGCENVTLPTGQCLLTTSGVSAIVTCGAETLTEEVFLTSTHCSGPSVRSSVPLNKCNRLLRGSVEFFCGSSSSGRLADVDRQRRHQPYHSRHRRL
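Purified cruzain at 1.5 nM, pre-incubated 15 min with compound at room temperature in 100 mM sodium acetate pH 5.5, 5 mM DTT, 0.00005% Triton X-100. Reaction started with 2 uM Z-FR-AMC; AMC fluorescence increase over 60 s gives rate.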
NS1 inh – influenza NS1 inhibition. S. cerevisiae slowed by influenza A NS1, growth recovery by OD600. Potency, µM (top dose mostly 46.1 µM), for the others: top-dose activity, positive = more growth. 270,000 compounds, 0.4% hits. AID 2326; active means well fitted rising curve with a large enough effect; inconclusive means small, poorly fitted or top-dose-only effect; inactive means no such curve, though single readings can be large or run the other way; further: nearly all actives have a fitted effect of over 50% in size
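S. cerevisiae expressing influenza A NS1, grown in glucose, washed, then diluted 1:100 into pH 6.0 -URA galactose medium with 23 nl compound. Growth recovery read as OD600; NS1-free strain serves as control.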
Cruzain inh Det – cruzain (T. cruzi) inhibition with detergent | purified cruzain, Z-FR-AMC fluorescence, 0.01% Triton | P25779 | Potency, µM, inactives show max response, negative = inhibition, most hits filed as inhibitors | 200,000 compounds, 0.43% hits;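 further: plate controls were neutral wells for no effect and buffer without enzyme for full effect; nearly all actives have a fitted effect of over 40% in size; top concentration of the series not given in the record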
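Detergent-containing arm of a paired screen for aggregation-based inhibition: 0.01% Triton X-100 present. Cruzain at 1.5 nM cleaved 2 uM Z-FR-AMC at pH 5.5 with 5 mM DTT; AMC fluorescence gain over 60 s measured activity.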
Active calls of the source: *; ? = inconclusive; . = no result given; & = joins results of further samples; [ ] = dose if it differs, or a comment. Unless noted, the call rests on the fitted dose curve; in most records, active means well fitted curve in the direction sought with a large enough effect; inconclusive means small, poorly fitted or top-dose-only effect, or another doubt; inactive means no such curve, though single readings can be large; an effect the other way counts as inactive or inconclusive. Potency means the concentration at half of the fitted maximal effect. The order is random. Share with any hit: about 4.7%.

SMILES	Lassa entry inh	SARS PLpro yeast	MARV entry inh	RE007 growth inh	2A StopGo	Cruzain inh noDet	NS1 inh	Cruzain inh Det
CC(C)C(NC(=O)C1CCCCC1)C(=O)NC1=NCCS1 (stereo unspecified)	?	-52%	1%	5%	-17%	7%	-8%	-1.8%
CC(=O)n1nc2nc(C)cc(C)c2c1N	-4%	0%	1%	-7%	-8%	-9%	5%	2.9%
COc1ccccc1OCC(=O)NCc1cccs1	?	10%	-8%	-6%	45%[activator]	-1%	-11%	5.0%
CCOc1ccc(NC(=O)C(=O)NCCN2CCN(C(=O)c3ccc(C)cc3)CC2)cc1	-7%	-1%	-3%[46.1 µM]	-7%	-21%	.	-1%	.
Cn1cccc1C(=O)OCC(=O)NC1CCS(=O)(=O)C1 (stereo unspecified)	5%	0%	?	11%	0%	.	2%	.
O=C(O)C1C2c3ccccc3C(c3ccccc32)C1C(=O)Nc1ccccc1 (stereo unspecified)	-2%[46.1 µM]	0%	-20%[46.1 µM]	-5%	-11%	.	7%	.
Cc1cccc(NCc2ccc(N(C)C)cc2)n1	3%[46.1 µM]	10%	?	-11%	-10%	.	3%	.
O=P(c1ccccc1)(c1ccccc1)C(c1ccccn1)P(=O)(c1ccccc1)c1ccccc1	2%	0%	-6%	9%	112%[activator]	.	-1%	.
CCOc1ccc(NC2=C(OC)C(=O)c3ccccc3C2=O)cc1	-24%	-21%	-16%	-27%	-26%	-1%	-10%	-11%
COc1cccc(C2C(C(=O)c3ccco3)=C(O)C(=O)N2CCCN2CCOCC2)c1OC (stereo unspecified)	3%[46.1 µM]	.	9%[46.1 µM]	18%	-15%	.	3%	.
CCC(=O)Nc1cccc(NC(=O)c2ccc(Br)cc2)c1	2%	-3%	1%[46.1 µM]	-21%	13%	-9%	-1%	0.9%
CCC(CC)C(=O)c1c[nH]c(C(=O)NCc2ccccc2OC)c1	.	1%	.	9%	40µM*	.	-5%	.
COc1ccc(CC(=O)N(Cc2ccccc2)c2ccc(C)cc2)cc1S(=O)(=O)N1CCOCC1	?	2%	?	0%	10%	.	.	.
CC1CCN(S(=O)(=O)c2ccc(C(=O)OCc3ccc4c(c3)OCO4)cc2)CC1	7%	-1%	-1%	-16%	-19%	-18%	3%	2.9%
CCCCCc1nnc(NC(=O)c2cccc(S(=O)(=O)N3CCOCC3)c2)s1	3%	3%	?	21%	?	.	.	.
C=CCOC(=O)c1ccccc1C(=O)OCC=C	.	0%	.	-13%	-13%	-4%	.	0.8%
COC(=O)c1ccccc1N=Nc1c(N)[nH][nH]c1=O	14%[46.1 µM]	1%	21%[46.1 µM]	-11%	-9%	.	11%	.
Cc1cc(-c2ccccc2C(=O)NC2CCCCC2)on1	-1%	-1%	17%[14.2 µM]	0%	0%	.	0%	.
O=C(N/N=C/c1ccc2c(c1)OCO2)c1cccc2ccccc12	-17%[46.1 µM]	-1%	3.2µM*	-9%	30%	.	4%	.
Cc1ccc(NC(=O)CSc2ccc3nnc(-c4ccccn4)n3n2)cc1	.	0%	.	1%	-15%	.	5%	.
CCOc1ccc(N(CC(=O)NCc2ccco2)C(=O)CCC(=O)Nc2ccccn2)cc1	-6%[46.1 µM]	8%	0%[46.1 µM]	12%	-6%	.	5%	.
O=C(NCc1ccc(F)cc1)C(=O)Nc1nc(C23CC4CC(CC(C4)C2)C3)cs1	?	-11%	?	-3%	?	?	-17%	-2.6%
O=c1[nH][nH]c2ccccc2c1=O	14%	-1%	10%[14.2 µM]	2%	4%	.	1%	.
O=C(NCCC1=CCCCC1)C1CCCN(S(=O)(=O)c2ccc(F)cc2)C1 (stereo unspecified)	-23%	2%	-13%	-15%	-3%	3%	3%	2.4%
COc1ccc(CNC(=O)c2ccc3c(=O)n(-c4ccccc4)c(=O)[nH]c3c2)cc1	?	-7%	-12%[46.1 µM]	-16%	0%	.	7%	.
CC(C)c1c(O)nc(SCC(=O)N2CCCCC2)[nH]c1=O	.	1%	.	-12%	-12%	.	2%	.
CCN1CCN(c2ncnc3c2sc2nc(N4CCOCC4)c4c(c23)CCC4)CC1	-11%	3%	1%&1%	-5%	-21%	9%	5%	0.7%
COc1ccc(CSCC(=O)Nc2ccc(S(=O)(=O)N3CCCCCC3)cc2)cc1	-16%	-20%	-5%	15%	?	-3%	5%	-7.2%
CC1(C)CC(=O)C/C(=N/NC(=O)COc2ccc(Cl)cc2Cl)C1	5%	0%	?	1%	-4%	.	8%	.
O=C1CSC(c2cccc([N+](=O)[O-])c2)N1Cc1ccccc1 (stereo unspecified)	30%[46.1 µM]	1%	?	15%	?	.	10%	.
COCCC(=O)N1CCC(Oc2ccc(C(=O)N(C)CCCC3CCCC3)cc2)CC1	.	-4%	.	7%	1%	.	-25%	.
O=C1CC(c2cccc(Cl)c2)c2cc3c(cc2N1)CCC3 (stereo unspecified)	?	-28%	?	16%	?	2%	-71%	-8.3%
Cc1ccc(C)c(NC(=O)CCN2CCCC(C)C2)c1 (stereo unspecified)	.	5%	.	0%	-5%	.	8%	.
Cc1nc2cc(OCc3cc(C(=O)NC(C)c4cn(C)nc4C)no3)ccc2s1 (stereo unspecified)	5%	1%	-9%	-4%	-21%	.	10%	.
CC(C)NC(=O)c1ccc(CS(=O)(=O)c2ccc(Br)cc2)o1	.	0%	.	9%	-24%	-17%	1%	-0.1%
Cc1ccc(/C=N/n2c(C)cc(C)c(C#N)c2=O)cc1	13%	9%	12%	11%	-16%	5%	0%	-5.1%
Cc1nc2ccccc2n1C1CCN(CC(=O)Nc2ccccc2Br)CC1	?	0%	?	2%	?	.	2%	.
COc1ccc(C(=O)Nc2ncc3c(n2)-c2ccccc2CC3)cc1	-7%	-20%	-1%	-8%	-9%	-8%	-35%	0.3%
CCOC(=O)C(=O)N1CCC(C(=O)OCC)CC1	20%	1%	-7%[14.2 µM]	-15%	28%	.	7%	.
CCS(=O)(=O)N1CCC(C(=O)Oc2ccc(C(=O)OC)cc2)CC1	5%[46.1 µM]	1%	?	31%	17%	.	11%	.
COc1cc(C2=NOC(C(=O)NCc3ccc(F)cc3)C2)cc(OC)c1OC (stereo unspecified)	-15%	1%	?	-4%	-9%	-4%	-6%	-3.8%
Cc1ccccc1C(=O)c1cccn1CC(=O)NC(C)c1ccc2c(c1)OCCO2 (stereo unspecified)	11%	-1%	-12%[46.1 µM]	-11%	1%	.	.	.
O=C1CCCC2=C1C(c1ccncc1)n1c(nc3ccccc31)N2 (stereo unspecified)	.	-1%	-2%[46.1 µM]	-2%	-20%	.	2%	.
O=C(O)C1CCN(S(=O)(=O)c2cccc3cccnc23)CC1	-2%	0%	-3%[46.1 µM]	9%	12%	.	-5%	.
C=CCn1c(=NC(=O)c2ccco2)sc2cc(C(=O)OC)ccc21	9%	-2%	?	6%	-19%	-1%	11%	11%
Clc1ccc(C[n+]2cc(-c3ccccc3)n3c2CCC3)cc1Cl	?	7%	?	4%	0%	-17%	2%	-2.3%
O=C(Cc1cccs1)N=Nc1c(O)[nH]c2ccc(Br)cc12	?	-1%	-8%[46.1 µM]	16%	?	.	-5%	.
CN1CCC(N(C)C(=O)c2ccc(Cl)c(S(=O)(=O)N3CCOCC3)c2)CC1	0%	-2%	?	-16%	-9%	.	.	.
COc1ccc(NC(=O)C(=O)c2cn(CC(=O)N3CCCC3)c3ccccc23)cc1	.	0%	.	-12%	24%	.	22%	.
